RE007 growth inh: less growth of the S. pombe RE007 Vpr strain; S. pombe RE007 Vpr strain, BacTiter-Glo ATP luminescence, 24 h; control for the full effect not named in the record; Potency, µM (titrated, usually from 92.2 µM), for the others: at the highest dose activity change, negative = less growth; hit rate 0.21% among 360,000; active = well fitted falling curve with a large enough effect; inconclusive = small, poorly fitted or top-dose-only effect; inactive = no such curve, though single readings can be large or run the other way;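 also: % is scaled to controls: 0 for no effect and ±100 for the full control effect; nearly all actives have a fitted effect of over 50% in size; the assay follows cell death caused by Vpr and the record does not say whether a fall means rescue or toxicity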
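Fission yeast RE007 carrying one integrated HIV-1 vpr copy, seeded at OD 0.01 in PMG+AL medium with 23 nL pinned compound. Grown 24 h at 30 degrees; viability read by BacTiter-Glo luminescence after 5 min.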
Marburg entry inh: Marburg virus entry inhibition; Marburg virus pseudotyped entry inhibition, cell reporter; control for the full effect not named in the record; about a third of the inactives were read at about 46 µM; Potency, µM (top dose mostly 37.8 µM), for the others: top-dose activity change, negative = inhibition, actives largely listed as inhibitors; hit rate 1.8% among 300,000; active = well fitted inhibition curve with a large enough effect; inconclusive = small, poorly fitted or top-dose-only effect, or effect the other way; inactive = flat fitted curve, though single readings scatter; tested in HEK293 cells; about a fifth of its hits are not listed in these tables; also: % is scaled to controls: 0 for no effect and ±100 for the full control effect; luciferase read-out
2A StopGo: lowers the luciferase signal of an FMDV 2A StopGo reporter | human cells with a luciferase reporter of 2A StopGo recoding; control for the full effect not named in the record | Potency, µM (titrated, usually from 57.9 µM), inactives show at the top dose signal change, negative = less light | hit rate 1.2% among 410,000; active = well fitted falling curve with a large enough effect; inconclusive = small, poorly fitted or top-dose-only effect; inactive = no such curve, though single readings can be large or run the other way; tested in HEK293T cells; also: % is scaled to controls: 0 for no effect and ±100 for the full control effect; nearly all actives have a fitted effect of over 45% in size; luciferase light after 4 h
NS1 function inh: influenza NS1 inhibition; S. cerevisiae slowed by influenza A NS1, growth recovery by OD600; Potency, µM (top dose mostly 46.1 µM), for the others: at the top dose activity, positive = more growth; hit rate 0.4% among 270,000; AID 2326; active means well fitted rising curve with a large enough effect; inconclusive means small, poorly fitted or top-dose-only effect; inactive means no such curve, though single readings can be large or run the other way; also: nearly all actives have a fitted effect of over 50% in size
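Read-out: OD600 growth recovery of NS1-expressing budding yeast. Cells grown overnight at 30C in -URA glucose medium, washed, resuspended and diluted 1:100 in 2% galactose assay medium, pH 6.0. Same strain lacking NS1 served as positive control.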
Lassa entry inh: Lassa virus entry inhibition. AID 540256. Lassa virus pseudotype entry inhibition, cell reporter; control for the full effect not named in the record. Potency, µM (highest dose often 37.9 µM), for inactives: at the highest dose activity change, negative = inhibition, hits mostly inhibitors. hit rate 1.2% among 300,000; active means well fitted inhibition curve with a large enough effect; inconclusive means small, poorly fitted or top-dose-only effect, or effect the other way; inactive means flat fitted curve, though single readings scatter; tested in HEK293 cells; also: % is scaled to controls: 0 for no effect and ±100 for the full control effect; nearly all actives have a fitted effect of over 50% in size; luciferase read-out
Cruzain Triton: inhibitors of Trypanosoma cruzi cruzain with detergent; P25779; purified cruzain, Z-FR-AMC fluorescence, 0.01% Triton; Potency, µM, for the others: max response, negative = inhibition, hits mostly inhibitors; hit rate 0.43% among 200,000; AID 1478;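 also: plate controls were neutral wells for no effect and buffer without enzyme for full effect; nearly all actives have a fitted effect of over 40% in size; top concentration of the series not given in the record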
Target sequence (P25779 123-467 limits assumed): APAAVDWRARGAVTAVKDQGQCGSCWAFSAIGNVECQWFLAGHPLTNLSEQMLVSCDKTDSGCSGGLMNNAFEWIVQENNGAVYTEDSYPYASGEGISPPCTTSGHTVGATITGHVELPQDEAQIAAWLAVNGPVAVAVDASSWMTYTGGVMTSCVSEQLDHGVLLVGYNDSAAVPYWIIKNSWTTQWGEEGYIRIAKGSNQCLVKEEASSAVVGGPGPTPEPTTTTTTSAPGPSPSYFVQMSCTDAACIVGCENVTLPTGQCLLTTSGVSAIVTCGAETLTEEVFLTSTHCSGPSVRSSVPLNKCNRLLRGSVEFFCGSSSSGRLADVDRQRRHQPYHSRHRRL
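In this qHTS format, compounds are incubated with 1.5 nM cruzain for 15 min at room temperature before 2 uM Z-FR-AMC is added. Release of AMC is followed at 360/450 nm, and progress is taken as the 60 s fluorescence difference.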
SARS PLP yeast: blocks SARS-CoV papain-like protease in a yeast assay. hit rate 0.19% among 330,000. S. cerevisiae expressing SARS-CoV PLpro, growth rescue; control for the full effect not named in the record. AID 485353. Potency, µM (top dose mostly 32.9 µM), for inactives: at the top dose activity, positive = growth rescue; active means well fitted rising curve with a large enough effect; inconclusive means small, poorly fitted or top-dose-only effect; inactive means no such curve, though single readings can be large or run the other way; also: 0% is about no effect; nearly all actives have a fitted effect of over 55% in size; growth read by luminescence after 48 h
Cruzain inh noDet: cruzain (T. cruzi) inhibition without detergent | P25779 | purified cruzain, Z-FR-AMC fluorescence, no detergent | Potency, µM, without a hit: max response, negative = inhibition, usual class: inhibitors | hit rate 2.3% among 200,000 | AID 1476;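 also: plate controls were enzyme without inhibitor for no effect and buffer without enzyme for full effect; nearly all actives have a fitted effect of over 40% in size; top concentration of the series not given in the record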
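Detergent-free condition (0.00005% Triton X-100) in acetate buffer pH 5.5 with DTT. 1.5 nM enzyme and compound were pre-mixed 15 min, then 2 uM Z-FR-AMC substrate added; reaction progress from fluorescence change between first and third reads (60 s).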
An asterisk follows results filed as active; ? = inconclusive; nt = not tested or not shown; [ ] = remark or other dose. Unless noted, calls follow the shape of the dose curve; as a rule, active = well fitted curve in the direction sought with a large enough effect; inconclusive = small, poorly fitted or top-dose-only effect, or another doubt; inactive = no such curve, though single readings can be large; an effect the other way counts as inactive or inconclusive. Potency is read from the fitted curve at half-maximal effect.

SMILES	RE007 growth inh	Marburg entry inh	2A StopGo	NS1 function inh	Lassa entry inh	Cruzain Triton	SARS PLP yeast	Cruzain inh noDet
O=C(O)c1ccccc1C(=O)NCc1cccnc1	15%	-21%	-10%	8%	8%	6.8%	-2%	-9%
COc1ccc(S(=O)(=O)N2CCC(C(=O)NCc3ccncc3)CC2)cc1Cl	-18%	5%[46.1 µM]	-7%	2%	-8%[46.1 µM]	nt	0%	nt
CCC(Cc1ccccc1)NC(=O)C1=C(C)C(=O)OC12CCC(C)CC2 (centres undefined)	3%	-2%[46.1 µM]	-9%	nt	11%[46.1 µM]	nt	0%	nt
Cc1nn(Cc2ccc(C(=O)NN)cc2)c(C)c1Cl	0%	?	11%	5%	-14%[46.1 µM]	nt	1%	nt
CCNc1nc(NCC)nc(OCCOC(=O)Nc2ccccc2)n1	9%	7%	2%	-5%	-29%	-3.8%	4%	-6%
c1ccc(CN2CCN(c3nc(-c4ccccc4)nc(-n4ccnc4)n3)CC2)cc1	-11%	?	-1%	-111%	-5%	-6.2%	-20%	-4%
Cc1ccc(F)cc1NC(=O)COC(=O)COc1ccc(C#N)cc1	14%	15%[46.1 µM]	-13%	nt	-2%	nt	-3%	nt
COc1ccc(NC(=O)C(OC(=O)c2cnc(C)cn2)c2ccccc2)cc1Cl (centres undefined)	-14%	15%	44%[activator]	nt	13%	nt	-3%	nt
Cn1c(Cc2cccs2)nnc1SCc1nc2ccccc2[nH]1	-1%	5%	-16%	-5%	6%	-0.7%	-9%	-7%
Cc1ccc(N(C(=O)c2csnn2)C(C(=O)NC(C)(C)C)c2cccnc2)cc1 (centres undefined)	-4%	-6%[46.1 µM]	-9%	1%	-4%[46.1 µM]	nt	0%	nt
COC(=O)c1c(C(=O)OC)c(C)n(Cc2cccnc2)c1C	13%	0%[46.1 µM]	-18%	-1%	-11%	-1.2%	1%	7%
COc1ccc(NC(=O)CN2CCN(S(=O)(=O)N(C)C)CC2)cc1	-2%	nt	-5%	-1%	nt	nt	-4%	nt
COc1ccc(NC(=O)Nc2sc(NS(=O)(=O)c3ccccc3)nc2C)cc1	-28%	8%	27%	nt	-18%	nt	-3%	nt
CN(C)S(=O)(=O)c1ccc(Cl)c(NC(=O)COC(=O)CN2C(=O)NC(C)(C)C2=O)c1	-7%	2%	5%	8%	?	-0.5%	-11%	4%
c1ccc(CCn2nnc3ccccc32)cc1	-14%	nt	19%	1%	nt	nt	0%	nt
CCOC(=O)CN(C(=O)COc1nc(-c2ccccc2)cc(C)c1C#N)c1ccc(C)cc1	-11%	nt	-19%	0%	nt	nt	1%	nt
O=C1CSC(=O)N1CC(O)COc1ccc(Cl)cc1 (centres undefined)	12%	13%	nt	5%	-1%	0.7%	9%	5%
O=C(Nc1ccccc1)c1cccc(=O)o1	-25%	13%[46.1 µM]	52%[activator]	-1%	-1%	nt	1%	nt
Cc1nc(C)c(-c2csc(N)n2)s1	6%	-1%	14%	3%	13%	nt	-1%	nt
CCc1ccc(C2c3c(-c4cc(C)ccc4O)n[nH]c3C(=O)N2CCO)cc1 (centres undefined)	nt	?	-26%	nt	?	-1.4%	nt	?
Cc1sc2ncn(CC(=O)NCCCC(=O)N3CCC4(CC3)OCCO4)c(=O)c2c1C	10%	-6%	-16%	14%	-1%	5.8%	-2%	-4%
COc1ccccc1C(=O)Nn1c(C)nc2ccccc2c1=O	1%	6%	-10%	2%	0%	nt	0%	nt
Cc1cc(C(=O)COC(=O)c2ccc(O)cc2)c(C)n1Cc1ccco1	6%	?	-3%	3%	?	-7.8%	10%	-15%
Cc1nc(-c2ccc(F)cc2)c(CC(=O)N2CCN(S(=O)(=O)c3cccc(F)c3)CC2)s1	-2%	-19%	-5%	nt	-22%	nt	-4%	nt
Cc1c(Cl)c([N+](=O)[O-])nn1CC(=O)NCCCN1CCOCC1	24%	0%[46.1 µM]	-20%	-1%	9%	nt	1%	nt
COc1ccc(Cn2c(C)nc([N+](=O)[O-])c2SCC(=O)O)cc1[N+](=O)[O-]	14%	18%[46.1 µM]	-7%	4%	-14%	nt	0%	nt
COc1ccc(NC(=S)NNC(=O)c2cccnc2)cc1OC	-8%	4%[46.1 µM]	-5%	5%	0%[46.1 µM]	nt	2%	nt
COc1cnn(-c2ccccc2)c(=O)c1N(C)C	-5%	13%	17%	9%	5%	1.0%	6%	-6%
O=C(CCc1ccccc1)NCCCN1CCOCC1	16%	15%[46.1 µM]	15%	3%	?	-1.9%	7%	-6%
O=C(Nc1cccc(C(=O)OCc2cc(=O)n3c4c(sc3n2)CCCC4)c1)c1cccc(F)c1	nt	nt	-14%	nt	?	1.2%	nt	-6%
NS(=O)(=O)c1ccc(CNC(=O)c2ccc(Cl)cc2[N+](=O)[O-])cc1	-4%	?	0%	8%	?	-1.2%	21%	-4%
COc1ccc(NC(C)=O)cc1S(=O)(=O)Nc1ccc2c(c1)OCCO2	5%	3%[46.1 µM]	10%	-2%	-13%	nt	-1%	nt
N#Cc1ccc(OCC(=O)Nc2ccc3[nH]c(=O)[nH]c3c2)cc1	3%	2%[46.1 µM]	-12%	nt	9%	nt	-7%	nt
O=C(COC(=O)C1COc2ccccc2O1)NC1CCS(=O)(=O)C1 (centres undefined)	-3%	-4%[46.1 µM]	-16%	3%	-1%	0.9%	4%	-1%
CCOc1ccc(NC(=O)C/C(C)=N/NC(=O)Cc2ccc(Cl)cc2)cc1	-12%	-10%[46.1 µM]	7%	3%	17%[46.1 µM]	nt	0%	nt
Cc1csc(NC(=O)c2cccn2C)n1	-27%	-31%	nt	6%	?	0.3%	-7%	-9%
COc1c(F)c(F)c(C(=O)O)c(Nc2ccccc2)c1F	5%	3%	2%	0%	0%	-1.4%	1%	-7%
COc1ccc(NC(=O)Nc2nnc(-c3ccccc3F)s2)cc1	7%	?	26%	nt	-2%[46.1 µM]	nt	0%	nt
O=C(CS(=O)(=O)Cc1ccccc1)Nc1cccnc1	18%	12%	10%	?	5%	2.4%	1%	1%
O=c1[nH][nH]cc1C=Nc1ccccc1O	?	?	-18%	-100%	?	-0.6%	-19%	-1%
CCOc1ccccc1Nc1ncnc2ccccc12	-12%	-10%	-32%	-13%	-8%	3.5%	-2%	-9%
CN1CC=C(/C=C/c2ccc(-c3ccccc3)cc2)CC1	-27%	nt	11%	-43%	nt	nt	-6%	nt
CC(C)(C)C(=O)OC/C(N)=N/OC(=O)c1ccc(Cl)c(Cl)c1	-29%	nt	11%	-73%	nt	nt	-6%	nt
CCOC(=O)CC1C(=O)NCCN1C(=O)c1cccc(OC)c1 (centres undefined)	-2%	nt	-18%	3%	nt	nt	1%	nt
c1ccc2c(c1)ncn2CCN1CCCCC1	12%	3%[46.1 µM]	10%	-7%[9.22 µM]	-4%	-2.5%	0%	-1%
Cc1cc(C)cc(NC(=O)c2cc3c(=O)n4ccccc4nc3s2)c1	9%	-8%[46.1 µM]	-17%	-6%	-3%	nt	4%	nt
CC(C)Cn1c(SCC(=O)N2CC(=O)Nc3ccccc32)nc2ccccc21	-20%	?	0%	-16%	12%	-6.8%	-5%	-1%
CCCCOc1ccc(C(=O)Nc2ccc3oc(-c4cccnc4)nc3c2)cc1	nt	nt	?	nt	-13%[46.1 µM]	0.5%	nt	-6%
N/C(=N\OC(=O)CSc1ccccc1)c1ccccn1	13%	nt	14%	-1%	nt	nt	-4%	nt
Oc1ccccc1Nc1nc(-c2ccccc2)c2cc(Cl)ccc2n1	nt	4%[46.1 µM]	22%	nt	1%[46.1 µM]	-0.7%	nt	2%
Cc1ccc(NC(=O)NCCc2ccc(S(N)(=O)=O)cc2)cc1	-3%	19%	-21%	-1%	-3%	0.4%	-2%	7%
O=C(NNC(=O)C1CC1)c1cc(=O)[nH]c2ccccc12	3%	?	-18%	nt	26%	nt	-8%	nt
CC(=O)c1c(C)[nH]c(C(=O)Nc2cccc(S(=O)(=O)N(C)C)c2)c1C	-2%	29%[46.1 µM]	42%[activator]	nt	-1%	nt	2%	nt
Cn1cc(CCC(=O)N2CCCC(C(=O)c3ccc(C(C)(C)C)cc3)C2)cn1 (centres undefined)	9%	-2%[46.1 µM]	-15%	-4%	-18%	nt	-2%	nt
Cc1ccc(S(=O)(=O)Nc2ccc(-c3nnc(SCc4ccccc4Cl)o3)cc2)cc1	-6%	?	4%	-20%	?	1.6%	24%	?
O=C(Nc1ccccc1-c1nnn(CC(=O)N2CCOCC2)n1)c1ccccc1F	-3%	?	-26%	3%	3%	nt	0%	nt
COc1ccccc1CNC(=O)CS(=O)(=O)Cc1ccccc1	-1%	-4%[46.1 µM]	19%	3%	23%[46.1 µM]	nt	6%	nt
O=C(O)CCC(=O)CCC(=O)c1ccc(Cl)cc1	9%	-15%	nt	-46%	-7%	2.9%	-3%	-8%
COc1ccc(S(=O)(=O)N(CCc2ccccc2)CC(=O)O)cc1C	7%	16%	33%[activator]	13%	?	-0.4%	11%	3%
CCOC(=O)c1cccc(NC(=O)Nc2c(C)n(C)n(-c3ccccc3)c2=O)c1	nt	16%[46.1 µM]	-9%	nt	-3%[46.1 µM]	-1.2%	nt	-2%
(further entries)
SMILES	RE007 growth inh	Marburg entry inh	2A StopGo	NS1 function inh	Lassa entry inh	Cruzain Triton	SARS PLP yeast	Cruzain inh noDet
COC(=O)c1ccc(C(=O)OC)c(NC(=S)N2CCC(C(N)=O)CC2)c1	12%	-3%[46.1 µM]	22%	2%	21%[46.1 µM]	nt	0%	nt
O=c1ccc(-c2ccc(S(=O)(=O)Nc3ccc(F)cc3)o2)n[nH]1	3%	nt	23%	-4%	nt	nt	3%	nt
CC(C)Cc1nn2c(=O)cc(COc3ccc(NC(=O)c4ccco4)cc3)nc2s1	5%	nt	-14%	17%	nt	nt	-1%	nt
COc1cccc(-n2c(C)nnc2SCC(=O)Nc2ccccc2N2CCOCC2)c1	-10%	0%	-4%	-2%	-6%	2.0%	8%	-1%
CCCn1ccc2c(OCC(=O)NCc3ccc(F)cc3)cccc2c1=O	nt	nt	0%	nt	?	-2.7%	nt	-13%
O=C(O)CCNS(=O)(=O)c1ccc2c(c1)Cc1ccccc1-2	3%	-5%	-20%	?	7%	3.6%	-1%	4%
